# Screening data: PubChem BioAssay, several laboratories
# UUG fidelity – yeast start codon fidelity modulation; AID 602363; S. cerevisiae UUG-firefly luciferase reporter, luminescence/redox ratio; hit rate 0.13% among 350,000; activity score, % at 18.7 µM;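 active = replicate mean at a twofold rise or more, about +100% in these data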;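 also: firefly luciferase made from a UUG start codon reports start codon fidelity; reporter light over untreated wells divided by growth signal over untreated wells; some hits fall short of that in this replicate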
# Rce1 inhib – blocks yeast Ras-converting enzyme; Q03530; yeast membranes, quenched prenylated peptide cleavage fluorescence; calls only; hit rate 0.27% among 290,000; AID 2563;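 active = fall in fluorescence gain of 50% or more versus controls, with final raw signal at or below 3038400; inconclusive = same 50% fall but final raw signal above 3038400; inactive = fall in fluorescence gain under 50%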;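 also: plate controls were neutral control wells for no effect and wells lacking membranes for full effect; tested at 10 µM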
# HIV Env fusion – blocks HIV Env-driven cell-cell fusion; HeLa-JRFL Env/CEM21 cell fusion, luciferase; inhibition, % at 12.3 µM; hit rate 1.1% among 360,000;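 active = mean replicate inhibition score of at least 50 and every replicate individually at or above 50; inconclusive = only one of the two criteria met; inactive = mean below 50 and not all replicates reaching 50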;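 also: 0% = plate neutral controls and 100% = maraviroc near 300 nM; one replicate is shown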
# CSC inhib – cancer stem cell inhibition | cancer stem cell-like cells viability, luminescence | inhibition, % at 7.5 µM | AID 2717 | hit rate 1.1% among 300,000;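 active = mean at 75% or more and at least half the replicates too; inconclusive = mean and replicates disagree; tested in HMLE shEcad cells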;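 also: 0% = median of negative and 100% = median of positive control wells; the first replicate is given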
# PABP FP inh – blocks human PABP binding to poly(A) RNA; hit rate 1% among 290,000; fluorescence polarization; P11940; inhibition, % at 35 µM;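 active = 50% or more with normal probe brightness, or confirmed in later tests; inconclusive = above 50% with abnormal brightness, or retests that disagree; inactive = below 50% or failed in later tests; about a fifth of its hits are not listed in these tables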;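 also: calls also rest on retests at 20 µM and on dose response follow-up; controls were probe without protein and protein plus probe with vehicle; some compounds called inactive have numbers as strong as hits; many hits fall short of the cut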
# Target sequence (P11940 whole entry, looked up): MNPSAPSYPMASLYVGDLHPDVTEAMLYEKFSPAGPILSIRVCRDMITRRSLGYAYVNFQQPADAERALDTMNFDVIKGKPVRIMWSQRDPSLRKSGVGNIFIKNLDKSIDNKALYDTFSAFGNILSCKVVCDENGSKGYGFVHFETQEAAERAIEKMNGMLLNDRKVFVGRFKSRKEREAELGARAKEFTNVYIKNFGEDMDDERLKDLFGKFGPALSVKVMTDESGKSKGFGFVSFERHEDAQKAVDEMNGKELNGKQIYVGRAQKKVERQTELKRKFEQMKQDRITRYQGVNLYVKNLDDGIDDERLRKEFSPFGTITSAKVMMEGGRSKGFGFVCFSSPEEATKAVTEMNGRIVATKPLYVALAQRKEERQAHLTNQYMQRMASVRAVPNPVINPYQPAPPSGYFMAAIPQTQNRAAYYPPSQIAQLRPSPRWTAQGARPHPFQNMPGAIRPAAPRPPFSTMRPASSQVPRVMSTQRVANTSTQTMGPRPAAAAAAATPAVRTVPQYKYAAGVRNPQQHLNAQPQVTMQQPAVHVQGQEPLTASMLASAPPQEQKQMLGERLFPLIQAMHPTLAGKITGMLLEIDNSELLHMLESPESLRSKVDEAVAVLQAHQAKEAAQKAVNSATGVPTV
# eIF4H FP inh – inhibitors of RNA binding by human eIF4H. Q15056. eIF4H fluorescence polarization binding assay. inhibition, % at 35 µM. hit rate 0.94% among 290,000. AID 2012;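 active = 50% or more with normal probe brightness, or confirmed in later tests; inconclusive = above 50% with abnormal brightness, or retests that disagree; inactive = below 50% or failed in later tests; about a fifth of its hits are not listed in these tables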;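 also: calls also rest on retests at 20 µM and on dose response follow-up; 0% = protein and probe with vehicle and 100% = probe without protein; strong numbers were not always called active; many hits fall short of the cut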
# MT1-MMP act inh – blocks activation of human MT1-MMP; AID 651647; hit rate 0.061% among 360,000; GFP/RFP ratio change, % at 20 µM; HT1080 RFP-PRO-GFP cells, GFP/RFP ratio fluorescence, overnight; percent of plate control window, DMSO zero; P50281;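 active = GFP/RFP ratio change of at least 30% with cell ATP level not reduced by more than half and red fluorescence within 50% of control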; also: strong numbers were not always called active
#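 Material – HT1080 RFP-PRO-GFP cells · Control set – DMSO wells and RFP-L50D-GFP cells · Incubation – overnight cell settling, then overnight compound exposure, 37 °C, 5% CO2 · Compound dosing – single-point 20 µM compound, 1% DMSO · Read-out – GFP/RFP fluorescence ratio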
# eIF4H FP inh retest – further read-out of eIF4H FP inh, marked with its call; inhibition, %; compound at 20 µM; confirmation average;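 mean of two retest wells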
# PABP FP inh retest – second read-out of PABP FP inh, no call of its own (marks repeat the call); inhibition, %; compound at 20 µM; confirmation repeats;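 mean of two retest wells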
# MT1-MMP act inh RFP – recorded beside MT1-MMP act inh, whose call it bears; RFP signal change, %; measured here: RFP expression control read;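 0 = vehicle wells; hits needed this value within 50% of zero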
# * hit, by the source's call; i = inactive; ? = inconclusive; nt = not tested or not shown; + = active, no number; & = joins results of further samples. Some of the compounds tested; the hit share may differ from the screen's.
SMILES,UUG fidelity,Rce1 inhib,HIV Env fusion,CSC inhib,PABP FP inh,eIF4H FP inh,MT1-MMP act inh,MT1-MMP act inh RFP,others
CC1CCN(c2nc(-c3ccncc3)nc3ccccc23)CC1,-18,i,nt,-5,2,-8,-12,-11,
Cn1cc(NC(=O)Nc2ccc(C(F)(F)F)cc2)c(C(F)(F)F)n1,-4,i,-22,-3,6,5,-1,0,
O=C1NCCN(Cc2cccc(Oc3ccccc3)c2)C1CC(=O)N1CCCO1 (centres undefined),2,nt,14,2,6,14,0,-3,
Oc1cccc(C=NNc2ccccn2)c1,-15,nt,-38,nt,nt,nt,3,1,
CC(C)(C)c1cc(-c2ccco2)c(C#N)c(SCC#N)n1,-13,i,nt,27,-6,-11,-7,-5,
CCCC1(C(=O)O)NC(c2cccc(OC)c2O)C2C(=O)N(c3ccccc3)C(=O)C21 (centres undefined),-1,i,13,-10,-11,-11,-3,7,
C[C@@H](O)C(C(=O)N1CCNCC1)n1cc([C@@H](N)CCCCN)nn1 (some centres undefined),8,nt,-25,6,nt,nt,1,5,
COc1ccc(CN2CCC(n3nccc3NC(=O)c3cccc(F)c3)CC2)cc1O,-5,i,-3,-4,9,-13,9,-2,
Cc1cc(=O)c2ccccc2[nH]1,-26,i,-77,-7,-3,-2,6,9,
COc1cccc(C(=O)N2CCN(Cc3ccccc3[N+](=O)[O-])CC2)c1,-13,i,31,-15,34,3,-1,2,
O=C1CN(C(=O)NCC(=O)N2CCCC2)c2ccccc2N1,-6,+,-3,24,4,-3,-5,2,
CCc1ccc2c(c1)[C@]1(C(=O)N2)[C@@H]2C(=O)N(Cc3ccccc3)C(=O)[C@@H]2[C@@H]2CCCN21,-13,i,-96,-15,9,-10,-10,-1,
CSc1cccc(NC(=O)c2ccccc2N(C)S(C)(=O)=O)c1,-17,nt,5,2,-4,-3,7,5,
CCOC(=O)c1cn(Cc2ccccc2)nn1,-17,i,nt,-3,-10,-10,-1,3,
O=C(N/N=C/c1ccc(O)cc1)c1cc[n+](Cc2ccccc2)cc1,-3,i,16,0,-9,-10,-3,-1,
C[n+]1cccc(C(=O)NCC2CCCO2)c1 (centres undefined),-21,i,nt,1,9,6,-5,3,
CC(C)(C)c1ccc(S(=O)(=O)NCc2ccc(C(=O)NCC3CCCO3)cc2)cc1 (centres undefined),2,i,7,0,0,-13,-1,-4,
CCN(CC)CCN(C(=O)CCOc1ccccc1)c1nc2ccc(F)cc2s1,nt,i,13,15,-18,-4,-1,3,
CC(=O)c1sc(NC(=O)c2cccc(C)c2)nc1C,nt,i,-76,15,-5,-1,-3,-1,
Cc1nnc(Nc2ccccc2)n(N)c1=O,nt,i,-27,nt,-1,-1,-1,4,
COc1cc(N=c2ssnc2Cl)cc(OC)c1OC,-26,i,nt,5,-1,4,-1,4,
COCCNCC(=O)NC12CC3CC(CC(C3)C1)C2,13,i,nt,3,13,-18,4,8,
CCC(NC(=O)c1cc(COc2ccc(F)cc2Cl)on1)c1ccncc1 (centres undefined),-1,i,7,nt,4,-4,0,-17,
COc1ccc(S(=O)(=O)N2CCOCC2)cc1NC(=O)/C=C/c1ccc(F)cc1,0,nt,-1,nt,nt,nt,3,1,
CCC(=O)c1ccc(OCC(=O)NCCc2ccccn2)cc1,-12,i,3,-6,-12,0,1,2,
O=C(Nc1ccc(Cl)cc1F)C1CC(=O)N(Cc2ccco2)C1 (centres undefined),-14,nt,2,nt,nt,nt,-3,0,
CCOC(=O)C1(Cc2ccccc2Cl)CCN(C(=O)c2cnccn2)CC1,-5,i,-9,-2,-6,-11,-3,-6,
CC(=O)c1cnn(-c2cc(Oc3ccc(F)cc3)ncn2)c1C,-13,i,nt,-4,3,8,1,-1,
CC(OC(=O)c1cccc(-n2cnnn2)c1)c1nc2ccccc2c(=O)[nH]1 (centres undefined),-12,nt,9,nt,nt,nt,-3,-1,
CC1(C)CSC(=NCc2ccccc2)N1C(=O)c1cccc([N+](=O)[O-])c1,nt,i,nt,-6,51,10,2,5,eIF4H FP inh retest=-3;PABP FP inh retest=11
O=C(N[C@@H]1C/C=C\C[C@@H](CC(=O)N(CCO)Cc2ccccc2)C(=O)N[C@H](Cc2ccccc2)COC1=O)OCC1c2ccccc2-c2ccccc21,-18,nt,-10,nt,nt,nt,-5,-6,
CCn1c(=O)c(=O)n(CC)c2cc(S(=O)(=O)Nc3cccc(OC)c3)ccc21,-12,i,21,-4,-6,-1,4,7,
Cc1ccc(C(=O)CCNc2ccc(Br)cc2)o1,-26,i,-20,24,-6,-6,0,-5,
CCC(=O)Nc1ccc(C(=O)CSc2nc3ccc(C)cc3[nH]2)cc1,-22,i,6,-13,-1,49,19,10,
COc1ccc(-c2nc(C(=O)NCC3CCCO3)cc3c2[nH]c2ccccc23)cc1 (centres undefined),3,i,nt,-2,2,-3,-2,-14,
COC(=O)COc1cc(Cl)c(C=O)cc1OC,nt,i,6,60,8,-8,2,4,
N#CCCN(C(=O)CN1CCN(S(=O)(=O)c2ccc(Cl)s2)CC1)c1ccc(F)cc1,1,nt,62*,-7,nt,nt,-3,-2,
CCOC(=O)c1cnc(SC)nc1Oc1cccc(NC(=O)c2ccc(Cl)cc2)c1,-12,i,nt,3,-2,-6,-3,-4,
COc1cccc(CNC(=O)C2CCN(S(=O)(=O)c3ccc4c(c3)NC(=O)CO4)CC2)c1,5,i,6,-18,-3,-6,-2,-3,
Cc1cc(C)c(S(=O)(=O)Nc2cccc3nsnc23)c(C)c1,-17,i,nt,19,-3,-10,-14,-4,
O=C(Nc1nncs1)c1ccc2c(c1)OCO2,-16,i,-2,20,-12,-4,-5,-3,
COc1cccc(N2CCN(S(=O)(=O)c3c(C)[nH]c(C)c3C(=O)N3CCCC3)CC2)c1,1,i,2,-12,6,3,-1,3,
CCCCn1c(N)c(N(CCC(C)C)C(=O)CC2OC(=O)c3ccccc32)c(=O)[nH]c1=O (centres undefined),-6,i,0,-7,nt,nt,0,-1,
CC12CC3(C)CC(C)(C1)CC(C(=O)NCc1ccccn1)(C2)C3,-2,i,23,-8,11,-7,-1,1,
CC1=C(C(=O)OCc2ccccc2)C(c2cccnc2)c2c(n(C)c(=O)n(C)c2=O)N1 (centres undefined),-6,i,nt,-2,-6,-11,-1&6,-1&5,
Cc1ccc2sc(N(CCCN(C)C)C(=O)c3ccc(S(=O)(=O)N4CCCCCC4)cc3)nc2c1C,-4,i,nt,77*,nt,nt,0,-1,
O=C(Nc1ccc2ccccc2n1)C1CCCCC1,-29,i,-47,4,0,-6,0,-8,
O=C(OCCNc1nc(-c2ccccc2)nc2ccccc12)c1ccncc1,-25,i,13,5,11,1,2,-1,
Cc1ccc(C(=O)NNC(=O)c2csc(N3CCOCC3)n2)o1,-10,i,-16,-13,nt,nt,5,0,
Cc1ccc(NC(=O)CNCC(c2ccccc2)N(C)C)cc1F (centres undefined),-1,i,-11,4,-2,-1,3,2,
CC1(C(=O)NNC(=O)c2ccc(=O)oc2)CC1Br (centres undefined),-5,i,-7,-9,83*,82,-12,7,eIF4H FP inh retest=30;PABP FP inh retest=57*
N#C/C(=C\c1cn[nH]c1-c1ccc(Cl)cc1)C(=O)NCc1ccccc1,-22,i,nt,35,-7,-2,-5,-9,
CC(O)c1nc2ccccc2n1CCOc1ccccc1 (centres undefined),-16,i,nt,-26,-8,-1,2,-4,
Cc1ccc(-c2cc3nc(C)cc(NCc4ccco4)n3n2)cc1,-29,i,-283,14,2,6,-6,-3,
COc1cc(C(=O)ON=C2C3CC4CC(C3)CC2C4)cc(OC)c1OC,12,i,-12,-2,2,-3,-12,-19,
Cc1nn(C)c(C)c1NS(=O)(=O)c1c(C)n[nH]c1C,1,nt,nt,-1,nt,nt,1,4,
CCCn1c(SCC(=O)NNC(=O)c2ccc(OC)cc2)nnc1C(C)C,-5,i,-23,-21,6,-12,-2,1,
CSc1ccccc1OCc1cc(C(=O)N(C)CCc2c(C)n[nH]c2C)no1,-12,i,2,-14,7,-10,0,-2,
CN1C2CCC1/C(=C\c1ccccc1)C(=O)/C2=C\c1ccccc1,-4,i,-253,92*,4,-7,-16,-23,
CC1CCN(CC(=O)Nc2sc3c(c2C#N)CCC3)CC1,-14,i,nt,nt,60,50*,3,5,eIF4H FP inh retest=54*;PABP FP inh retest=31

# Carrying on:
SMILES,UUG fidelity,Rce1 inhib,HIV Env fusion,CSC inhib,PABP FP inh,eIF4H FP inh,MT1-MMP act inh,MT1-MMP act inh RFP,others
Cc1cc(C)n(-c2ccc(C(=O)Nc3ccccc3N3CCOCC3)cc2)n1,1,i,1,-9,-7,-2,4,-5,
Nc1ccn([C@@H]2O[C@H](C(=O)N3CCCN(Cc4cccs4)CC3)[C@@H](O)[C@H]2O)c(=O)n1,12,nt,4,nt,nt,nt,2,6,
COc1ccccc1C(=O)Nc1ccc2c(c1)n(C)c(=O)n2C,0,i,-16,0,-4,-8,5,5,
CC(C#Cc1c([C@@H](C)Oc2ccccc2)nnn1Cc1ccccc1)Oc1ccccc1 (some centres undefined),24,i,45,-11,5,8,-3,-2,
NC(=S)N=Nc1c(O)n(Cc2ccc(Br)cc2)c2ccccc12,nt,i,16,58,-1,4,7,-11,
CSc1ccc(/C=C2\NC(=O)NC2=O)cc1,-19,i,1,-12,nt,nt,1,-1,
COc1ccc(CCN=C(NS(=O)(=O)c2ccccc2)c2ccccc2)cc1OC,2,i,15,1,10,-7,-2,2,
CSC1=NCCN1C(=O)c1cccc(Br)c1,-10,i,-60,-13,4,-2,10,0,
CCOC(=O)C1C(c2ccccc2O)NC(=O)NC1(O)C(F)(F)F (centres undefined),-14,i,-2,nt,-3,-7,-1,5,
CSc1nnc(NC(=O)c2nc(S(=O)(=O)Cc3ccccc3)ncc2Cl)s1,-11,i,?,nt,12,2,-2,-1,
Cn1ncc([N+](=O)[O-])c1C(=O)Nc1nccs1,nt,i,0,-2,-12,-9,2,4,
Cc1csc(NC(=O)C(C)N2C(=O)c3ccccc3S2(=O)=O)n1 (centres undefined),-18,i,13,-6,nt,nt,1,-1,
CC(C)NC(=O)CN(Cc1ccc(F)cc1)C(=O)CCC(=O)Nc1nccs1,-1,i,-11,-10,0,12,3,10,
COc1ccc(-c2nc(SC)n(C)c(=O)c2C#N)cc1OC,-4,i,nt,-3,4,1,-5,-6,
COc1ccc([C@@H]2[C@@H]3C(=O)N(C(C)(C)C)C(=O)[C@@H]3[C@]3(Cc4ccccc4)C(=O)N(c4cccc(Cl)c4)C(=O)N23)cc1,-9,i,80*,-8,nt,nt,-1,-3,
CCc1nc2nc(C)c(NS(=O)(=O)c3ccc(Br)s3)c(=O)n2[nH]1,-11,nt,13,0,10,-3,3,4,
Cc1ccc(C(=O)CS(C)(=O)=O)cc1,-21,i,nt,nt,-5,2,1,1,
COc1ccc(-c2[nH]ncc2CN2CCSCC2)c(OC)c1,nt,i,1,-3,-6,-14,-2,2,
N/C(=N\OC(=O)CCCOc1ccc(Cl)cc1Cl)c1ccncc1,-12,i,4,nt,1,-14,5,-6,
CCOC(=O)c1cccc(Nc2ncnc3ccc(C)cc23)c1,nt,i,nt,-8,-9,-9,-2,-11,
c1cc2ccc3ccc(-n4cnnn4)c4ccc(c1)c2c34,-13,i,i,12,28,10,-23,-4,
